Tgondii IFNg: blocks Toxoplasma gondii growth in the presence of IFN-gamma. Toxoplasma gondii growth in IFN-gamma-treated host cells; active compounds read low; reference of the scale not given here. activity change, negative = inhibition, %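 (about 20 µM by stock and volumes)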. 69,000 tested, 3.8% active. AID 1259416;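 active = below -70%; inconclusive = fit judged invalid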;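 note: host cells are HeLa cells infected with Toxoplasma gondii; parasite growth read as luciferase light; one replicate is shown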
Numbers without * were called inactive; ? = inconclusive; & = joins results of further samples. An excerpt; the hit share may differ from the screen's.

smiles,Tgondii IFNg
CO[C@@H]1CC[C@@H]2[C@H]1OCCN2C(=O)CCOc1ccccc1,7
O=C(C[C@@H]1CC[C@@H]2[C@H](COC[C@@H](O)CN2S(=O)(=O)c2ccccc2)O1)NCC1CCCCC1,-63
OCc1c[nH]c2ccccc12,9&11
C[C@@H]1CN([C@H](C)CO)C(=O)Cc2cc(NC(=O)C3CCCCC3)ccc2O[C@H]1CN(C)Cc1ccc(Cl)c(Cl)c1,-72*
CC1COC2(CCN(C(=O)C3CCCO3)C2)C1 (stereo not drawn),91
CC(C)OCc1ncn2c1CN(Cc1nccs1)CCC2,-4
O=c1ccc2cc(O)c(O)cc2o1,-48
Cc1cccc(N2CC3(CCN(C(=O)c4cccc5cccnc45)C3)CC2=O)c1 (stereo not drawn),4
Cc1ccc(C)c(NC(=O)CN2C(=O)CCc3cc(S(=O)(=O)N4CCCC4)ccc32)c1,41
COc1ccc(-c2nc(Nc3cc(OC)c(OC)c(OC)c3)c3ccccc3n2)cc1,-35
CS(=O)(=O)N1[C@H](CO)[C@H](c2ccccc2-c2ccccc2F)[C@@H]1C#N,10
COC(=O)c1[nH]c(=O)c2ccccc2c1O,29
Nc1nc(F)cc(N2CCCCCC2)n1,26
Cc1cccc(-c2nc(Cn3nnc(-c4nc(-c5ccc(Cl)c(F)c5)no4)c3C)c(C)o2)c1,1
CC(C)c1cc(C(=O)N(C)CC2CCN(c3ccccc3)C2)no1 (stereo not drawn),-6
Cc1ccccc1CNC(=O)Cn1ncc2c(N3CCN(c4ccccn4)CC3)ncnc21,69
Cc1nc(-c2ccc(Cl)cc2)sc1CCNC(=O)c1cc2ccccc2oc1=O,77
CCCn1nc(C)c(CNC(=O)C2(c3ccccc3F)CC2)c1C,0
CN(C)CC(=O)N1CCC2(CC1)CN(C(=O)c1cscn1)C2,-20
CO[C@H]1COC[C@@H]1NC(=O)c1ccc(CSc2ccccn2)cc1,12
CCN(CC)CCOC(=O)c1ccc2c(c1)OCCO2,17
COC(=O)[C@@H]1C[C@@H](NC(=O)c2c(C)cc(C)[nH]c2=O)CN1C,1
Nc1cccc2c1CN(C1CCC(=O)NC1=O)C2=O (stereo not drawn),4
CN1C(=O)CC2C1CCN2C(=O)c1ccc[nH]1 (stereo not drawn),94
S=c1[nH]nc(Cc2ccccc2)n1Cc1ccco1,-2
Cc1nc(-c2cc(C(=O)N3CCCC3)c3ccccn23)cs1,8
O=C(O)c1ccc(-c2ncnc3[nH]ccc23)s1,-7
Cc1ccc(-c2nc(Cn3nnc(-c4nc(-c5ccncc5)no4)c3C)c(C)o2)cc1,-68
Cc1noc(C)c1S(=O)(=O)N(C)C[C@H]1OCc2ccccc2-c2ccccc2C(=O)N([C@@H](C)CO)C[C@@H]1C,23
COCC(=O)Nc1ccc2c(c1)C(=O)N(C)C[C@H](OC)[C@@H](C)CN(CCc1ccccc1)[C@H](C)CO2,13
CCC(CN(C)Cc1ccccc1)NS(=O)(=O)c1ccc2[nH]c(=O)ccc2c1 (stereo not drawn),-20
Cc1ccc(Nc2nc(C(=O)Nc3cc(Cl)ccc3C)nc3ccccc23)cc1,29
COc1ccc(-c2nc(CN(c3ccccc3)S(=O)(=O)c3ccccc3)c(C)o2)cc1OC,-41
CCOc1ccccc1-c1nc(Cn2nnc(C(=O)Nc3cc(OC)ccc3OC)c2C)c(C)o1,196
CC(C)c1nc2cc(NC(=O)c3ccc(OCCN4CCCC4=O)cc3)ccc2n1C,-25
O=C(NCC[C@H]1CC[C@H](NS(=O)(=O)c2ccc(F)cc2)[C@H](CO)O1)c1ccc2c(c1)OCO2,43
Cc1ccc(NCc2c(-c3ccccc3)nn(C)c2C)cc1S(=O)(=O)N(C)C,12
O=C(O)CN1CC2CCC(C1)C2C(=O)NCc1ccco1 (stereo not drawn),-19
NC(=O)c1csc(-c2cccc(C(=O)O)c2)n1,-2
COCCNC(=O)C[C@H]1CC[C@@H]2[C@@H](COc3ccc(NC(=O)Nc4cccc(F)c4)cc3C(=O)N2C)O1,0
Nc1cc(=O)[nH]c(SCC(=O)Nc2cccnc2Cl)n1,-70
CCCNC(=O)N1CCC2(CC1)CN(Cc1ccccn1)[C@@H](CO)c1c2c2ccc(OC)cc2n1C,-12
Cc1nc(N)n(CCC(=O)O)c(=O)c1C,31
Cc1c(C)n(C2CCCC2)c2ncnc(OC3CCN(C(=O)Cc4ccsc4)CC3)c12,-80*
Cc1nc(-c2cccc(F)c2)sc1CCNS(=O)(=O)c1ccc2c(c1)CCCC2,50
Cc1cccnc1N1CCN(Cc2cnc(CC3CCCC3)[nH]2)CC1,-13
COC(=O)CNS(=O)(=O)c1ccc(Cl)cc1,4
CN(C)[C@@H]1C[C@@H](CO)N(C(=O)c2cc(-c3cccnc3)nc3ccccc23)C1,-3
O=C1N(CC2CC2)CCC12CCN(c1ncccn1)CC2,19
COc1ccccc1C(=O)NC(c1ccccn1)C1CCC(CNC(C)=O)CC1 (stereo not drawn),0
COc1ccc(Cl)cc1NC(=O)c1c(O)c2cccnc2[nH]c1=O,30
CCc1csc(-c2ccc(S(=O)(=O)NCCN3CCCCC3C)s2)n1 (stereo not drawn),-53
CC(C)N(C(=O)CSc1nnc(Cc2csc(Nc3ccccc3)n2)o1)C(C)C,-32
C[C@H](c1ccc(F)cc1)n1c(CCN)n[nH]c1=O,-10
CC(Cn1ccnc1)NCC1(c2cccc(F)c2)CCOCC1 (stereo not drawn),-2
Cc1ccc(CS(=O)(=O)N2CCCC3(CCCC(=O)N3C)C2)cc1 (stereo not drawn),7
CCO[C@@H]1CCN(S(=O)(=O)N(C)C)[C@@H]2CCO[C@H]21,-82*
CC1(C)CCC(C)(C)c2cc(Cn3cccn3)c(/C=C/c3ccc(C(=O)O)cc3)cc21,-43
CN1CCN(C(=O)C2(c3ccc(F)cc3)CC2)CC1=O,0
CCCc1ncncc1C(=O)N1CCCC2(CNC(=O)O2)C1 (stereo not drawn),41

The list continues:
smiles,Tgondii IFNg
Brc1ccc(Nc2c3ccccc3nc3ccccc23)cc1,-92*
COc1ccc(-c2ccnc(SCC(=O)Nc3ccccc3)n2)cc1,-23
N#Cc1ccc(-c2ccc(C3[C@@H]4CN(S(=O)(=O)c5ccc(F)cc5)C[C@H]3N4)cc2)cc1 (stereo partly drawn),-64&-31
Cc1ccc(CSCC(=O)N2CCCC2)cc1,15
CN(C)S(=O)(=O)c1ccc2c(c1)cc(C(=O)NCc1ccc(F)cc1)n2Cc1ccncc1,-38
COc1cccc(NC(=O)N[C@@H]2CC[C@H](CC(=O)N3CCN(C)CC3)O[C@@H]2CO)c1,20
CN(C)S(=O)(=O)N1CCC2OCCCC2(COc2ccccn2)C1 (stereo not drawn),-7
O=C(O)CCSC(=S)N1CCCC1,-6
O=C(COc1ccccc1)NCCCNC(=O)c1cccnc1,37
CCOC(=O)C1CCN(c2nc(-c3ccc(Cl)cc3)nc3ccccc23)CC1,-32
CCSc1nnc(NC(=O)c2cc(S(=O)(=O)N3CCCCC3)cs2)s1,-21
Cc1cc2ccccc2n1CCC(=O)NC1CCCOC1 (stereo not drawn),29
Fc1cccc(CSc2nc(NC3CCCCC3)c3ccccc3n2)c1,-76*
Cc1cc(C)cc(S(=O)(=O)N2CCC3(CC2)Nc2ccc(C)c(C)c2-n2cccc23)c1,18
C=CCn1c(=O)c(C(=O)Nc2ccc(C(C)C)cc2)c(O)c2ccccc21,215

Further compounds follow.
smiles | Tgondii IFNg
COc1ccc(Cc2ncc3c(n2)CN(C(=O)C2CCC(=O)NC2)C3)cc1 (stereo not drawn) | -19
Cc1ccc(-c2cc3c(=O)n(Cc4nc(-c5ccc(OC(C)C)cc5)oc4C)ccn3n2)cc1C | -72
CCn1cc(S(=O)(=O)N2CCC3(CC2)C(=O)NCCCN3C)cn1 | 4
Cc1ccc(C)c(-c2noc(-c3c(O)c4cc(C)ccc4[nH]c3=O)n2)c1 | 78
COc1ccc(-c2cc(-c3ccccc3)c3cc(Cl)ccc3n2)cc1 | -52
CCSc1ccc(-c2noc(-c3cccc(C(F)(F)F)c3)n2)cn1 | 71
Cc1ccccc1N1CC2(CCN(C(=O)C3CC3)C2)CC1=O (stereo not drawn) | -7
OC[C@H]1[C@@H](c2ccc(-c3cccnc3)cc2)[C@H]2CN(Cc3ccccn3)CCCCN21 | -35
CN1CC[C@H](OCc2ccncc2)[C@@H](Cc2ccccc2)C1 | -7
O=C(Oc1ccc2c3c(c(=O)oc2c1)CCC3)c1ccccc1 | 6
O=S(=O)(c1cccc(F)c1)N1CCC2(CC1)Nc1ccccc1-n1cccc12 | -7
COCC(=O)N1CC[C@@H]2[C@H]1c1cc(-c3cccc(F)c3)ccc1N(C)[C@@H]2CO | 20
O=C(CN1CCC2(CCC1=O)NC(=O)c1ccccc1N2)NCc1ccc2c(c1)OCO2 (stereo not drawn) | -13
CCc1ccc(S(=O)(=O)Nc2ccc3c(c2)CCC(=O)N3CC(C)C)cc1 | -90*
C=CCNc1cnn(C23CC4CC(CC(C4)C2)C3)c(=O)c1Cl | -23
CC(C)n1cnc2c(-c3ccccc3)nc(C3CCN(S(=O)(=O)C4CC4)CC3)cc21 | -19
O=c1/c(=C/c2ccccc2Cl)sc2nnc(-c3ccccc3)n12 | 8
COc1ccccc1-n1cc(C(=O)N2CCCC3(CNC(=O)O3)C2)cn1 (stereo not drawn) | -2
Cc1ccccc1C(=O)c1ccc(Nc2ccc(Br)cc2N)cc1Cl | 28&-10
Cc1c(C)c2c(c(C)c1O)CCC(C)(COc1ccc(CC3SC(=O)NC3=O)cc1)O2 (stereo not drawn) | -7
C[C@H]1CN([C@@H](C)CO)C(=O)CCCn2nncc2CO[C@H]1CN(C)C(=O)Nc1ccccc1C(F)(F)F | -33
CCO[C@@H]1CC[C@@H]2[C@@H]1OCCN2C(=O)c1ccc2ccccc2c1 | 1
Cc1noc(C)c1CN1CCn2c(Cn3cccn3)cnc2C1C (stereo not drawn) | -3
COc1ccc(NC(=O)CN2C(=O)CCc3cc(S(=O)(=O)N4CCCC4)ccc32)cc1OC | 38
Cc1cc(C)c(CSCCn2c(C)ccc2C)c(C)c1 | 7
COCC1CCCN(Cc2cn[nH]c2-c2cc3ccccc3o2)C1 (stereo not drawn) | 50
Cc1ccc(OCC(=O)NCCc2sc(-c3ccc(F)cc3)nc2C)cc1 | -24
CC(C)CN1CC2(CCN(C(=O)c3ccc4[nH]ccc4c3)CC2)C2(CCNC2=O)C1 (stereo not drawn) | 8
COc1ccc(C(=O)NC2CCCc3c2cnn3Cc2ccccc2Cl)cc1 (stereo not drawn) | -80*
CCC(=O)c1cccc(-c2ccc(NC(C)=O)cc2)c1 | 68
Cc1cc(C)n(Cc2nc(-c3ccc(NC(=O)c4cccc(C#N)c4)cc3)oc2C)n1 | -65
CC(C)(C)c1nnc(-c2ccc(Oc3cc(Cl)cc(Cl)c3)o2)o1 | -12
CCN(C(C)=O)C1CCN(Cc2ccc(C(=O)Nc3c(C)noc3C)cc2)C1 (stereo not drawn) | -3
O=C(NC(=O)N1CCOCC1)c1csnn1 | -41
C[C@@H](NC(=O)C[C@@H]1C=C[C@@H](NS(=O)(=O)c2cccc(F)c2)[C@@H](CO)O1)c1ccccc1 | -37
COCCN1C(=O)N(CCc2ccccc2)C(=O)C12CCN(Cc1ccoc1)CC2 | -50
O=c1ssc(=NCc2ccccc2)n1Cc1ccccc1 | -46
O=C(NCCc1csc(-c2ccc(F)cc2)n1)c1ccccc1F | -70
CN1C(=O)c2cc(NC(=O)c3ccc(C(F)(F)F)cc3)ccc2OC[C@@H]2O[C@H](CC(=O)NCc3ccc4c(c3)OCO4)CC[C@@H]21 | ?
Cc1ccc2[nH]nc(C(=O)N3CCCC3c3ccc(Cc4ccccc4F)cn3)c2c1 (stereo not drawn) | -105*
CCS(=O)(=O)N1[C@H](CO)[C@H](c2ccccc2)[C@H]1CN(C(C)=O)C1CCCC1 | 5
CCc1ccc(NC(=O)Nc2ccc(-c3nc(-c4ccccc4)co3)cc2)cc1 | 5
COc1cccc(C(=O)Nc2ccc3c(c2)OC[C@@H](C)N(CCc2ccccc2)C[C@@H](C)[C@@H](OC)CN(C)C3=O)c1 | 262
CNc1cc(CCNC(=O)Cc2ccc3c(c2)OCCO3)nc(-c2ccncc2)n1 | 0
CCN=C1N[C@@H]2[C@@H](O)[C@H](O)[C@@H](CO)O[C@@H]2S1 | 10

Next part; it opens with the seven that closed the last part.
smiles | Tgondii IFNg
CN1C(=O)c2cc(NC(=O)c3ccc(C(F)(F)F)cc3)ccc2OC[C@@H]2O[C@H](CC(=O)NCc3ccc4c(c3)OCO4)CC[C@@H]21 | ?
Cc1ccc2[nH]nc(C(=O)N3CCCC3c3ccc(Cc4ccccc4F)cn3)c2c1 (stereo not drawn) | -105*
CCS(=O)(=O)N1[C@H](CO)[C@H](c2ccccc2)[C@H]1CN(C(C)=O)C1CCCC1 | 5
CCc1ccc(NC(=O)Nc2ccc(-c3nc(-c4ccccc4)co3)cc2)cc1 | 5
COc1cccc(C(=O)Nc2ccc3c(c2)OC[C@@H](C)N(CCc2ccccc2)C[C@@H](C)[C@@H](OC)CN(C)C3=O)c1 | 262
CNc1cc(CCNC(=O)Cc2ccc3c(c2)OCCO3)nc(-c2ccncc2)n1 | 0
CCN=C1N[C@@H]2[C@@H](O)[C@H](O)[C@@H](CO)O[C@@H]2S1 | 10
O=C(Cc1ccccn1)N[C@H]1CC[C@@H](CCNS(=O)(=O)c2cccc(F)c2)O[C@H]1CO | 85
Cc1ccc(S(=O)(=O)N2CCC3(CC2)NCCN=C3NCc2ccc(F)cc2)c(C)c1 | 0
CCc1nc(OCC(=O)Nc2ccccc2F)c2ccccc2n1 | -20
CN1CCN(C(=O)c2ccccc2NC(=O)C(C)(C)C)CC1 | 2
Cc1nccn1CC1CCC2C(C1=O)c1ccccc1N2C (stereo not drawn) | 3
Fc1cccc(-c2ccc(C3[C@H]4CNC[C@@H]3N4Cc3cncnc3)cc2)c1 (stereo partly drawn) | 20&-50

A run of entries from the list above, for reference:
smiles | Tgondii IFNg
O=C(Cc1ccccn1)N[C@H]1CC[C@@H](CCNS(=O)(=O)c2cccc(F)c2)O[C@H]1CO | 85
Cc1ccc(S(=O)(=O)N2CCC3(CC2)NCCN=C3NCc2ccc(F)cc2)c(C)c1 | 0
